Screening data: PubChem, several laboratories
MLL AF4-AF9 inh – MLL-AF4/AF9 protein interaction inhibition | inhibition, % at 10 µM | AID 651704 | actives 0.47% (n = 350,000) | AlphaScreen, biotin-AF4 peptide binding to FLAG-AF9;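 active means every replicate reaching a set inhibition limit, whatever the replicate mean, cut at about 25% in these data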;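 further: 0% = plate neutral control median and 100% = total signal loss; the record names both 10 and 1 µM as test concentration; the first replicate is given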
Target sequence (P42568 whole entry, looked up): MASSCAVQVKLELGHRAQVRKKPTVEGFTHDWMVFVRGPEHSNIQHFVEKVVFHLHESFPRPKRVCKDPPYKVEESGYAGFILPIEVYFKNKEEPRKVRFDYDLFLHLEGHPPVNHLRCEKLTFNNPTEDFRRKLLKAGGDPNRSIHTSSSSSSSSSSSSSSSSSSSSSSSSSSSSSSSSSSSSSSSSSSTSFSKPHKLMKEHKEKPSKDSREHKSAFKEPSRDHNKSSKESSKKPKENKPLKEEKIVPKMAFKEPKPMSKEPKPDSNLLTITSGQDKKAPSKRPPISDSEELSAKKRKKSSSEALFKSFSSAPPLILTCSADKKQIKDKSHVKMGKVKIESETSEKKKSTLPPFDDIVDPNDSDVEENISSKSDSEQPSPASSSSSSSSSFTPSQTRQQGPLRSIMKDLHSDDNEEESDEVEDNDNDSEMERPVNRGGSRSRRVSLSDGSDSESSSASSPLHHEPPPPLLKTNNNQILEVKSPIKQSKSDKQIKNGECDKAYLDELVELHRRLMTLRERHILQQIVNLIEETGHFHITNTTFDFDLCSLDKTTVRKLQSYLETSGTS
Ecoli rRNA inh – inhibitors of bacterial rRNA selective over humanized ribosomes; GFP signal change (wild-type ribosome), % (test concentration not listed); E. coli WT GFP vs humanized-ribosome RFP mutants, fluorescence, 24 h; active compounds read low; DMSO median 0, no signal -100; actives 1.6% (n = 350,000);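 active means significant combined selectivity score with lowered wild-type GFP, culture density cut under 30%, mutant RFP and density less affected; inactive means any of these conditions unmet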; further: one replicate is shown; some compounds called inactive have numbers as strong as hits
Vif TR-FRET – HIV-1 Vif–A3G interaction blockers – biochemical, TR-FRET, GST-Vif 1-94, biotin-A3G peptide, dose response retest, primary screen (AID 1117319); TR-FRET GST-Vif / biotin-A3G peptide binding; higher % means a stronger effect; test concentration not given here; strong numbers were not always called active; inhibition, %, or IC50 in µM where a hit was titrated; actives 0.57% (n = 260,000);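 active means above the screen mean plus three standard deviations and confirmed in dose response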;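 further: Vif residues 1-94 fused to GST binding biotinylated APOBEC3G peptide 110-148; 0% = full assay without inhibitor and 100% = GST in place of GST-Vif; retest series ran down from 100 µM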
Ecoli rRNA inh OD600 – also measured in Ecoli rRNA inh; calls as there; OD600 change, %; measured here: OD600 growth;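 optical density of the mix in the first replicate; 0 = DMSO median and -100 = no signal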
Ecoli rRNA inh RFP – recorded beside Ecoli rRNA inh, whose call it bears; RFP signal change, %; measured here: RFP humanized mutant strains;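 first replicate; 0 = DMSO median and -100 = no signal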
The depositor's hits bear a star; & = joins results of further samples. The list is partial. The share of hits here may be higher or lower than overall.

Assay codes – A = MLL AF4-AF9 inh; B = Ecoli rRNA inh; C = Ecoli rRNA inh OD600; D = Ecoli rRNA inh RFP; E = Vif TR-FRET
Nc1cc(S(=O)(=O)O)cc2ccc(S(=O)(=O)O)cc12
  A: -6.4; B: 10; C: 8; D: 2.2; E: 0%
Cc1ccc(C)c(S(=O)(=O)NC2CCSC2=O)c1 (configuration not stated)
  A: -38; B: 12; C: 20; D: 2.3; E: 3%
NS(=O)(=O)c1ccc(N2N=C(c3ccccc3)CC2c2cccc(Br)c2)cc1 (configuration not stated)
  A: -4.6; B: -6; C: -3; D: 0.8; E: -1%
NCC(=O)NCC(=O)NC[C@H]1O[C@@H](n2ccc(=O)[nH]c2=O)[C@H](O)[C@@H]1O
  A: -0.9; B: 15; C: 17; D: -0.8; E: 3%
COc1cc2c(cc1OC)[C@@H](NC(=O)c1ccc(C(F)(F)F)cc1)[C@H](OCc1ccccc1)C2
  A: -2.2; B: 25; C: 23; D: 5.1; E: -12%
CCN1C(=O)[C@H]2[C@@H](c3ccc(C(F)(F)F)cc3)N[C@]3(CCCN(Cc4ccc(Cl)cc4)C3=O)[C@H]2C1=O
  A: -0.2; B: -36; C: -66; D: -2.8; E: 0%
O=C(c1ccccc1)c1ccc2ccccc2c1
  A: -4.4; B: -14; C: -14; D: 2.0; E: -3%
Cc1ccc(NC(=O)c2ccc(OCC3CCCO3)cc2)cc1Cl (configuration not stated)
  A: 1.6; B: -2; C: -6; D: -4.9; E: -1%
CC(C)(C)Cc1c(-c2ccccc2)nc2ccc(Cl)cn12
  A: -2.4; B: -8; C: -6; D: -4.2; E: -1%
N#Cc1ccc(Oc2ccc(C#N)c(C#N)c2)cc1C#N
  A: -5.1; B: 16; C: 18; D: 3.9; E: 5%
O=C(C=Cc1ccccc1)c1cc(Br)ccc1O
  A: 6.5; B: -44; C: -68; D: -14; E: -1%
O=C(Cc1cccc(NC(=O)C2CCCN(C(=O)C3CCCCC3)C2)c1)Nc1cccc(C(=O)N2CCCCC2)c1 (configuration not stated)
  A: 0.1; B: -4; C: 2; D: -0.5; E: 2%
CN(Cc1ccccc1)CC(O)CN(C)Cc1ccccc1
  A: 0.0; B: 6; C: 11; D: -2.8; E: -9%
Cc1cccc(NC(=O)CN(C)C(=O)Cc2ccc(-c3ccccc3)cc2)c1C
  A: 3.6; B: 2; C: 8; D: -0.5; E: -13%
COc1ccc(NC(=O)c2ccc(NC(=O)c3cccnc3)cc2)cc1
  A: 0.7; B: 2; C: -2; D: 0.3; E: -2%
COc1ccc2ccc3ccc(OC)c(OC(C)=O)c3c2c1
  A: -5.3; B: -52; C: -64; D: -12; E: -9%
COc1ccc(CCNS(=O)(=O)c2ccc3c(c2)CC(C)N3C(=O)C2CC2)cc1OC (configuration not stated)
  A: -1.1; B: -5; C: -10; D: -5.9; E: 0%
CCC(=NNS(=O)(=O)c1ccc(C)cc1)c1ccc(OC)c(C)c1
  A: -8.8; B: 5; C: 8; D: 1.3; E: 1%
Cc1c(N(C)S(=O)(=O)c2cccc(C(=O)NCc3cccnc3)c2)c(=O)n(-c2ccccc2)n1C
  A: -6.5; B: -1; C: -2; D: -0.6; E: -1%
CCN(CC)CC(O)c1ccc2ccc3ccc(O)cc3c2c1 (configuration not stated)
  A: 1.9; B: -11; C: -6; D: 2.5; E: -5%
C[C@H]1CN(CCc2ccccc2)C(=O)[C@@H]1CC(=O)Nc1ccccc1
  A: -4.0; B: -2; C: 0; D: 0.1; E: 2%
CSc1ncccc1C(=O)N1CCCC(N2CCN(c3ccccc3C)CC2)C1 (configuration not stated)
  A: 2.8; B: -4; C: -8; D: -2.7; E: -4%
O=C(Nc1ccc(C(F)(F)F)cc1)C1CCCCN1S(=O)(=O)c1ccccc1 (configuration not stated)
  A: -2.4; B: -26; C: -68; D: -0.7; E: -7%
CCOC(=O)Sc1nc2ncncc2[nH]1
  A: -4.9; B: 12; C: 13; D: -1.6; E: -5%
CC(C)CN1CC(C)C(=O)N(c2ccccc2)C1=O (configuration not stated)
  A: -1.2; B: 1; C: 9; D: -2.8; E: -5%
CC(C)C[C@H]1CNC(=S)N1CC1CCCN1C[C@H](CC(C)C)N1C[C@H](CC(C)C)N(CC2CCCCCC2)C1=S (some centres not stated)
  A: 2.6; B: 13; C: -11; D: 3.7; E: -7%
CCCCCC1C(=O)C[C@@H]2CCN3C(=O)CCC[C@H]1[C@H]23 (some centres not stated)
  A: -0.6; B: 5; C: 5; D: 1.1; E: 0%
Cc1ccc(CN2CC(C(=O)Nc3nc(C)cs3)CC2=O)cc1 (configuration not stated)
  A: -2.9; B: -2; C: -6; D: 1.3; E: -1%
O=C(Nc1cccc(C(=O)N2CCOCC2)c1)C1CCCC1
  A: -7.4; B: 28; C: 17; D: 2.6; E: -3%
C[C@H](CO)N1C[C@H](C)[C@H](CN(C)C(=O)c2ccccc2)OCc2ccccc2-c2c(n(C)c3ccccc23)C1=O
  A: 1.0; B: -11&0; C: -16&-10; D: -0.3&17; E: -2%

Record cards (already shown):
`CC(C)CN1CC(C)C(=O)N(c2ccccc2)C1=O` (configuration not stated) is listed as MLL AF4-AF9 inh = -1.2; Ecoli rRNA inh = 1; Ecoli rRNA inh OD600 = 9; Ecoli rRNA inh RFP = -2.8; Vif TR-FRET = -5%
`O=C(Nc1ccc(C(F)(F)F)cc1)C1CCCCN1S(=O)(=O)c1ccccc1` (configuration not stated) is listed as MLL AF4-AF9 inh = -2.4; Ecoli rRNA inh = -26; Ecoli rRNA inh OD600 = -68; Ecoli rRNA inh RFP = -0.7; Vif TR-FRET = -7%

Later entries.
Assay codes – A = MLL AF4-AF9 inh; B = Ecoli rRNA inh; C = Ecoli rRNA inh OD600; D = Ecoli rRNA inh RFP; E = Vif TR-FRET
CCOc1ccccc1C(=O)NCC(=O)NCCSc1ccc(Br)cc1
  A: -1.1; B: -7; C: 5; D: -5.4; E: 2%
N#Cc1ccc(OCC(=O)OCC(=O)c2ccc[nH]2)cc1
  A: 4.3; B: 10; C: 8; D: -0.8; E: -1%
CCN1CCC[C@H]1CNCCCn1cnc2c(SC)ncnc21
  A: 3.6; B: 27; C: 15; D: 11; E: -5%
O=C(COc1ccc([N+](=O)[O-])cc1)NC(=O)NC1CCS(=O)(=O)C1 (configuration not stated)
  A: 0.3; B: 1; C: 10; D: 0.5; E: -1%
COCCCN(C(=O)c1cc(Cl)nc2ccccc12)c1c(N)n(Cc2ccccc2)c(=O)[nH]c1=O
  A: -0.6; B: 8; C: 2; D: -0.3; E: -2%
COCCCNC1=C(C#N)C(=O)NC(c2cccs2)S1 (configuration not stated)
  A: -0.3; B: 1; C: 5; D: 1.7; E: 2%
COc1cc(C2c3cc4c(cc3OC(NCCc3ccccc3)C2C)OCO4)cc(OC)c1OC (configuration not stated)
  A: 3.4; B: 2; C: -14; D: -0.4; E: 5%
CCN(CC)C(=O)C1=C(C)N(Cc2ccc(C(C)(C)C)cc2)C(=O)C(CC(=O)NCc2ccco2)C1 (configuration not stated)
  A: 0.9; B: -13; C: -6; D: 4.8; E: 8%
O=C1C(Cl)=C(O)C2(Cl)C(Cl)=C(Cl)C12Cl (configuration not stated)
  A: 1.5; B: 9; C: 3; D: 0.8; E: -2%
CC(C)(C)OC(=O)N[C@H]1C=C[C@@H](OC(=O)CC(=O)OCC(F)(F)F)C1
  A: -0.9; B: -8; C: -9; D: 5.3; E: 6%
C[C@H](CO)N1C[C@H](C)[C@@H](CN(C)Cc2ccc3c(c2)OCO3)Oc2cc(Br)ccc2S1(=O)=O
  A: 2.0&2.3; B: -14&-34; C: -66&-56; D: -0.2&8.2; E: 21%
C[C@H](CO)N1C[C@H](C)[C@@H](CN(C)S(=O)(=O)c2cn(C)cn2)Oc2c(NS(=O)(=O)c3cccs3)cccc2C1=O
  A: -3.0&-1.9; B: 1&2; C: 3&10; D: 0.8&-1.2; E: -5%
CCCCCCN1C[C@H](O)[C@@H](n2cc(-c3ccc(F)cc3)nn2)C[C@@H]1c1ccc(Cl)cc1
  A: 0.2; B: 23; C: 21; D: 4.6; E: -7%
CC(C)C[C@H]1CN([C@@H](CC(C)C)CN2CCCC2CN2C(=S)NC[C@@H]2Cc2ccc(O)cc2)C(=S)N1CC1CCCCCC1 (some centres not stated)
  A: 3.0; B: 11; C: 12; D: 1.3; E: 1%
CC(C)(C)OC(=O)C[C@H]1C/C=C\C[C@@H](CC(=O)NCCO)C(=O)N[C@H](C(C)(C)C)COC1=O
  A: -1.5; B: 4; C: 11; D: 0.0; E: -6%
O=S1(=O)N=C(c2ccccc2)C=C(c2ccccc2)N1
  A: -3.5; B: -4; C: 1; D: 4.0; E: -3%
O=[N+]([O-])c1ccc(Cc2ccc([N+](=O)[O-])cc2)cc1
  A: -0.9; B: 2; C: 12; D: -1.0; E: -6%
c1ccc2c(CCc3ccncc3)cccc2c1
  A: -1.1; B: -62; C: -81; D: -20; E: 1%
C[C@H](CO)N1C[C@H](C)[C@H](CN(C)C(=O)c2ccncc2)OCc2cnnn2CCCC1=O
  A: -1.9&-6.0; B: 9&6; C: 1&3; D: 3.3&6.4; E: -2%
Cc1ccc(S(=O)(=O)NC(=O)NCc2ccco2)cc1
  A: 0.6; B: 10; C: 13; D: 1.6; E: 10%
Cc1c(CCNC=O)cc(C)c2c3c(oc12)CCCC3
  A: 0.3; B: -59; C: -75; D: -15; E: 0%
C/C(CC(=O)NC1CCCC1)=N\NC(=O)C1CCCCC1
  A: 0.9; B: 12; C: 18; D: 1.9; E: -1%
O=c1[nH]cnc(O)c1C1C=CC=CC=C1
  A: 3.1; B: 10; C: -9; D: -3.4; E: -8%
Cc1ccc(C(=O)OCC(=O)Nc2ccccc2C(F)(F)F)cc1S(=O)(=O)N1CCCCC1
  A: 7.9; B: -2; C: -13; D: 2.9; E: -5%
O=C(Nc1cccc(Cl)c1)C1CCCN(C2=NS(=O)(=O)c3ccccc32)C1 (configuration not stated)
  A: 1.6; B: -10; C: -8; D: 0.7; E: -8%
CCN(CC)C(=O)C1=C(C)N(Cc2ccc(F)cc2)C(=O)C(CC(=O)NC(c2ccccc2)c2ccccc2)C1 (configuration not stated)
  A: -0.3; B: -28; C: -43; D: -7.8; E: -8%
Cc1ccc(S(=O)(=O)N2CC(O)C[C@H]2C(=O)OCC(=O)Nc2ccc(N3CCOCC3)cc2)cc1C (some centres not stated)
  A: 1.6; B: 4; C: 7; D: 2.9; E: -4%
Cc1ccccc1N1CCN(C2CCCN(C(=O)CSc3ccccn3)C2)CC1 (configuration not stated)
  A: -1.4; B: -10; C: -7; D: 1.5; E: -5%
Cc1ccc(S(=O)(=O)N2C[C@]3(O)C[C@@H]4C(=O)N(c5ccccc5)C(=O)[C@@H]4C[C@]3(OC(=O)NC3CC3)C2)cc1
  A: -0.7; B: -1; C: 2; D: 1.8; E: 4%
O=C(OCC(=O)N1CCN(c2ccccc2)CC1)c1cc(F)c(F)cc1Cl
  A: -3.7; B: 7; C: 11; D: 5.5; E: -6%
CCOc1ccc(C(=O)N[C@H](C(=O)N2CCN(c3ncccn3)CC2)C(C)C)cc1
  A: -1.6; B: 2; C: 11; D: -1.7; E: 1%
COC(=O)[C@]1(Cc2ccccc2)N[C@H](CN(C)C(=O)COc2ccccc2)[C@@H]2C(=O)N(C)C(=O)[C@@H]21
  A: -11; B: 0; C: 3; D: -0.3; E: -3%
C#CCN(C[C@@H]1[C@@H](OC(=O)NCc2ccccc2F)[C@@H](OC(=O)NCc2ccccc2F)Cn2c(=O)n(CCCCCC)c(=O)n21)S(=O)(=O)c1ccc(C)cc1
  A: -0.5; B: 17; C: 9; D: 6.5; E: -6%
CC(C)=C(c1ccc(Cl)cc1)c1c(N)ncnc1N
  A: -1.8; B: -21*; C: -7.0*; D: -7.5*; E: 7%
CCCCCCC(NC(=O)Cc1ccc2ccccc2c1)C(=O)O (configuration not stated)
  A: -5.4; B: -4; C: -20; D: 0.2; E: -8%
CCOC(=O)C(Cc1c[nH]c2cc([N+](=O)[O-])ccc12)(NC(C)=O)C(=O)OCC
  A: -0.4; B: -6; C: 3; D: 3.5; E: -7%
C[C@H](CO)N1C[C@H](C)[C@@H](CN(C)S(=O)(=O)c2ccccc2)Oc2ccc(NS(=O)(=O)c3ccccc3)cc2C1=O
  A: -6.9&0.5; B: 0&-10; C: 6&-6; D: -0.6&6.0; E: -6%
COc1cccc(S(=O)(=O)N(C)C[C@H]2OCc3cnnn3CCCC(=O)N([C@H](C)CO)C[C@@H]2C)c1
  A: -0.9&-1.6; B: 10&-2; C: 19&-4; D: 1.5&-2.2; E: -1%
C/C=C/C(=O)N[C@@H]1c2ccccc2CC[C@@H]1OCc1ccccc1
  A: -1.3; B: 8; C: 12; D: 1.9; E: -3%
Cc1cc(OCC(=O)OC(C)C(=O)NC2CC2)c(C(C)C)cc1Cl (configuration not stated)
  A: -8.0; B: 9; C: -2; D: 3.9; E: 3%
CC(=O)Nc1cc2c(c(Cl)c1Cl)-c1ccccc1C2=O
  A: -0.3; B: 3; C: 6; D: -3.9; E: -3%
Cc1ccc(C(=O)COC(=O)c2cccc(O)c2)s1
  A: -1.5; B: -13; C: -14; D: -3.3; E: 4%
